miR-21 reporter: raises the signal of a miR-21 reporter. HeLa miR-21 FLuc reporter, luciferase, 48 h. Potency, µM (highest dose often 38.3 µM), for inactives: top-dose reporter change, positive = more light. 340,000 tested, under 10 active; active = well fitted rising curve with a large enough effect; inconclusive = small, poorly fitted or top-dose-only effect; inactive = no such curve, though single readings can be large or run the other way;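 further: % of control where 0% means no effect; miR-21 action dims this reporter so a rising signal means less miR-21 action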
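Luminescence from a firefly luciferase reporter carrying a miR-21 binding site downstream, stably expressed under a CMV promoter in HeLa cells that make miR-21 endogenously, reports miRNA modulation after 48 h compound exposure up to approximately 40uM final.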
GLA inh pH 4.5: inhibitors of human alpha-galactosidase A at pH 4.5 | 230,000 tested, under 10 active | purified enzyme, 4-MU-alpha-Gal fluorescence, pH 4.5 | activity change, negative = inhibition, % at 105 µM | P06280; inconclusive = small, poorly fitted or top-dose-only inhibition, or a rising curve; inactive = flat fitted curve, though single readings scatter; no compound was filed as active;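 further: 0% = full activity with enzyme and -100% = basal without enzyme; dose as in the result columns while the protocol names 77 µM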
Rango release inh: inhibitors of RanGTP-induced Rango-importin beta complex dissociation. O95149+P62826. Biochemical FRET Rango-importin beta, RanGTP-induced dissociation. Potency, µM (titrated, usually from 46.1 µM), for inactives: top-dose activity change, negative = inhibition. hit rate 0.071% among 340,000. AID 540253; active means falling FRET ratio curve, often poorly fitted, with flat reads before Ran was added; inconclusive means other falling curves, or compound fluorescence or quenching; inactive means flat or rising ratio curve;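 further: potency means the concentration at half of the fitted maximal effect; % of control where 0% means no effect; nearly all actives have a fitted effect of over 45% in size; -100% = wells without RanGTP and RCC1; the record marks most hits as doubtful in a second field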
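Compounds sat 5 min at room temperature with 0.1 uM Rango biosensor plus 0.25 uM importin beta, then FRET pre-read. RanGTP-RCC1 (0.6 uM Ran, 2mM GTP, 0.2 uM RCC1) added for 45 min, and the CFP/YFP post-read measured blocked complex dissociation.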
Rango complex inh: inhibitors of Rango-importin beta complex formation. Q14974. Rango CFP/YFP FRET sensor + importin beta, 45 min. Potency, µM (series often up to 92.2 µM), inactives show at the highest dose inhibition of complex formation. hit rate 0.031% among 340,000. AID 540263; active = rising FRET ratio curve, often small or poorly fitted; inconclusive = mostly compound fluorescence or quenching in the first reads; inactive = flat curves in all reads;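 further: potency means the concentration at half of the fitted maximal effect; 0% = DMSO wells and 100% = buffer wells lacking importin beta; nearly all actives have a fitted effect of over 15% in size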
Target sequence (Q14974 whole entry, looked up): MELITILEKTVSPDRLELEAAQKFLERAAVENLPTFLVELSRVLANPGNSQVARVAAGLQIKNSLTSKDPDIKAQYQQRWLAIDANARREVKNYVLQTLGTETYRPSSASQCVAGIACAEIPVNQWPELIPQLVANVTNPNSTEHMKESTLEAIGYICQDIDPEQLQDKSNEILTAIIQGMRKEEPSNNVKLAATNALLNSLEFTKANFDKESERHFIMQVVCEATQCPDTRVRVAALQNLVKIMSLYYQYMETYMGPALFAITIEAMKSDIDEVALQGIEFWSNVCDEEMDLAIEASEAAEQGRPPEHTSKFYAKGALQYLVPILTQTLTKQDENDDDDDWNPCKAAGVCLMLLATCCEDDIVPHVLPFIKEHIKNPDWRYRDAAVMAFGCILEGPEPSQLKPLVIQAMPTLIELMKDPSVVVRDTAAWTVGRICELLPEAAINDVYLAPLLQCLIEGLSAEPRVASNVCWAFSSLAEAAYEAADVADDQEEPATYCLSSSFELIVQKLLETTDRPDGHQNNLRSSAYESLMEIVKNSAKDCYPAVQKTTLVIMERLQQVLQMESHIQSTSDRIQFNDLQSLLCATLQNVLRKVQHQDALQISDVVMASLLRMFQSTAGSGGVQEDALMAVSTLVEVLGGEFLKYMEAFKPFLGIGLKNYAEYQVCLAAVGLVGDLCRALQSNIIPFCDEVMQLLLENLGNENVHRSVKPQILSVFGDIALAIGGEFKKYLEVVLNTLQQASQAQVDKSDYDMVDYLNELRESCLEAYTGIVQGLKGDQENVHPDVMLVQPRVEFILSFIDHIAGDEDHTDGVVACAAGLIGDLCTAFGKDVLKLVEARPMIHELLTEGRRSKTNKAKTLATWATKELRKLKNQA
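Inhibition scored from the CFP 486 nm/YFP 530 nm FRET ratio 45 min after adding 0.125 microM importin beta to 50 nM Rango biosensor preincubated 5 min with compound (room temperature, PBS with DTT, Tween-20, BSA). No-importin wells as positive control.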
* hit, by the source's call; ? = inconclusive; · = not tested or not shown. Some of the compounds tested (hit frequency here may not be typical).

Each structure is followed by: Rango complex inh, GLA inh pH 4.5, Rango release inh, miR-21 reporter
Cc1ccnc2nc(C(=O)Nc3nnc(CC(C)C)s3)nn12
→ 0.9%, -3, -5%, -8%
CCc1cc(C(=O)N2CCCc3ccccc32)sc1C
→ 0.6%, ·, -9%, ·
COC(=O)C(=Cc1ccc(-c2ccsc2C(=O)OC)o1)C(=O)OC
→ 4.5%, -9, -11%, -20%
Cc1nn2c(NCc3cccnc3)c3c(nc2c1-c1ccccc1)CCC3
→ 2.3%, 3, -17%, -1%
CC(C)(C)C(=O)Nc1ccc(Cc2ccncc2)cc1
→ -4.0%, ·, 1%, ·
O=C(Nc1cccc(C(=O)N2CCN(Cc3ccccc3)CC2)c1)c1ccccc1
→ 4.9%, -2, -1%, 6%
CCCCCCCC1CC(/C(C)=N/NC(N)=O)OC1=O (stereo not given)
→ 0.2%, 2, 15%, -6%
CCN(Cc1ccccc1)C(=O)c1oc2ccc(S(=O)(=O)N3CCOCC3)cc2c1C
→ 0.1%, ·, 1%, 3%
Cc1cccc(N(CC(=O)N/N=C/c2ccc(C(=O)O)cc2)S(=O)(=O)c2ccccc2)c1C
→ 6.5%, ·, 0%, ·
O=C1CN(C(=O)c2ccccc2Br)C(c2ccc(F)cc2)c2cc(F)ccc2N1 (stereo not given)
→ -0.7%, ·, 0%, 4%
Cc1ccccc1OCCC(=O)OCC(=O)Nc1ccc(N2CCOCC2)cc1
→ 0.5%, ·, 0%, 2%
COC(=O)c1c(NC(=O)CSc2n[nH]c(N)n2)sc(C)c1C
→ -1.1%, 6, 1%, 1%
Cc1ccc(CC2(O)CC(C)N(C)CC2C)c(C)c1 (stereo not given)
→ 0.4%, -4, 4%, -8%
O=c1c2ccccc2nnn1CSc1ccccc1F
→ 0.1%, 5, 12%, -42%
Nc1nccc(/C=C/c2c(Cl)cccc2Cl)n1
→ 1.4%, 0, 3%, -5%
CC(=O)Nc1ccc(C(=O)NCC(=O)OCc2c(F)cccc2Cl)cc1
→ -2.1%, -7, -6%, -5%
O=C(/C(=C/O)N=Nc1ccccc1)c1cccs1
→ -0.8%, -9, 35%, 28%
O=[N+]([O-])c1ccc2c(c1)C(O)n1nc(-c3ccccc3)nc1S2 (stereo not given)
→ 3.0%, 1, -6%, -9%
COc1ccc(N=C2C(=O)Nc3ccc(C)c(Br)c32)cc1
→ 1.0%, ·, -15%, -9%
CCOc1ccc(OCC)c(S(=O)(=O)n2ccnc2C)c1
→ 0.5%, ·, 6%, -4%
C=CCSc1nc2sc3c(c2c(=O)n1CC)CCC3
→ -0.2%, ·, -4%, -1%
Cc1ccc(-n2nc3c(N4CCC(C(=O)NCCc5cccs5)CC4)nnc(C)c3c2C)cc1
→ ?, ·, -15%, 0%
Cc1onc(-c2c(F)cccc2Cl)c1C(=O)OCc1nnc(-c2ccccc2)o1
→ 0.0%, ·, 2%, ·
COc1ccc(S(=O)(=O)N2CCN(c3ccccc3)CC2)cc1OC
→ 2.3%, ·, -15%, ·
COc1ccc(S(=O)(=O)Cc2ccc(C(=O)N3CCN(C4CCCCC4)CC3)o2)cc1
→ 0.1%, -1, -3%, -3%
CCN(C(=O)COC(=O)c1cc(=O)[nH]c2ccccc12)c1c(N)n(Cc2ccccc2)c(=O)[nH]c1=O
→ 1.0%, ·, -7%, ·
CCSC1=NC(C)(C)C=C(C)N1
→ -0.1%, 7, 30%, 0%
COc1ccc(Cl)cc1S(=O)(=O)N1CCCC(C(=O)NCC(N)=O)C1 (stereo not given)
→ -2.0%, ·, 19%, ·
CCN1CCN(C(c2cccs2)C(C)NC(=S)NC2CCCCC2)CC1 (stereo not given)
→ 20%, -4, ?, 3%
CCOP(=O)(c1ccc(N(C)C)cc1)C(O)c1c(Cl)cccc1Cl (stereo not given)
→ -5.7%, 1, -5%, -9%
COc1cc(/C=N/NC(=O)c2cccc(N3CCCC3=O)c2)ccc1O
→ 0.9%, ·, 7%, -34%
COc1cc(NC(=O)c2ccco2)c(OC)cc1NC(=O)c1cc(OC)c(OC)c(OC)c1
→ ?, 7, -5%, 15%
COc1ccccc1C(=O)COC(=O)Cc1n[nH]c(=O)c2ccccc12
→ -5.1%, ·, 36%, ·
CCN1C(=O)C(CC(=O)Nc2c(C)cccc2C)SC1=Nc1ccc(S(N)(=O)=O)cc1 (stereo not given)
→ -2.1%, -2, ?, -13%
O=C(COC(=O)c1ccccc1O)NC(=O)NCc1ccccc1
→ 0.5%, ·, -6%, ·
CC(C)C(NS(=O)(=O)c1cccs1)C(=O)NCc1ccc2c(c1)OCO2 (stereo not given)
→ -1.8%, -1, 0%, -2%
CC(C)CN1CCC(=O)N([C@H](CO)Cc2ccccc2)CC1
→ -4.3%, ·, -6%, -3%
Cc1cccc(CN2CCC(CNC(=O)Nc3ccccc3F)CC2)c1
→ 1.4%, ·, -15%, ·
CCCCCCSc1cc(-c2nc3ccc(C)cn3c2NCCCC)ccc1OC
→ ?, ·, -22%, ·
COC(=O)[C@]1(CC(C)C)N[C@H](c2ccc(-c3ccc(OC)cc3)cc2)[C@@H]2C(=O)N(C)C(=O)[C@@H]21
→ 1.6%, ·, 14%, ·
CCOCCCNC(=O)c1cc2c(=O)n3cccc(C)c3nc2s1
→ -0.7%, ·, 0%, 0%
O=c1c2c([nH]n1-c1ccccc1)CCCC2
→ 5.9%, 1, 14%, -10%
CN(C)S(=O)(=O)c1ccc(NC(=O)Cn2c(-c3ccccc3)noc2=O)cc1
→ 9.4%, -5, -18%, 5%
Cc1onc(-c2c(F)cccc2Cl)c1C(=O)Nc1cccc2nsnc12
→ ?, 1, ?, 13%
Cc1ccccc1-c1nc(C#N)c(N2CCC(C)CC2)o1
→ -0.4%, ·, 23%, -40%
c1csc(C2=NNC(=NC3CCCCC3)SC2)c1
→ -1.4%, 0, -3%, -35%
CC(=O)C(C)n1c(CN(C)Cc2ccccc2)nc2c1c(=O)n(C)c(=O)n2C (stereo not given)
→ ?, ·, 1%, 0%
Cn1c(=O)c(C(=O)Nc2ccccn2)c(O)c2ccccc21
→ 0.5%, 12, 2%, -44%
Cc1ccccc1NC(=O)Cc1nc(COC(=O)C(C)C)cs1
→ 1.1%, ·, 13%, -2%
CN(Cc1ccccc1)C(=O)c1ccc(NC(=O)C2CCCN(C(=O)OC(C)(C)C)C2)cc1 (stereo not given)
→ 4.5%, ·, -6%, ·
Cc1ccc(C)c(N=Cc2ccc(-c3ccc([N+](=O)[O-])cc3)o2)c1
→ 0.5%, -4, 0%, 1%
COCCNS(=O)(=O)c1ccc(-c2ccc(Cl)cc2)cc1
→ -2.3%, -23, 6%, -5%
Cc1ccc(CN(C(=O)c2ccccc2C)C2CCS(=O)(=O)C2)o1 (stereo not given)
→ 4.5%, ·, 3%, -6%
CC(C)(C)c1ccc(S(=O)(=O)N2CCCC2C(=O)N2CCOCC2)cc1 (stereo not given)
→ -3.2%, 5, 10%, 1%
Cc1cccc(-n2ncc3c(NCCCN4CCCC4=O)ncnc32)c1
→ -1.6%, 7, -16%, -28%
Cc1nc([N+](=O)[O-])c(Br)n1Cc1ccc(Cl)c(Cl)c1
→ 2.0%, 2, 0%, ?
CCc1ccc2c(CN3CCC(C(=O)OC)CC3)cc(=O)oc2c1
→ -2.4%, ·, -6%, -10%
CN1C(=O)/C(=C/c2ccco2)SC1=Nc1ccc(N2CCOCC2)cc1
→ -1.8%, -7, -2%, -10%
CC1CCCN(C(=O)CN2CCC(c3nc4ccc(Cl)cc4[nH]3)CC2)C1 (stereo not given)
→ 0.3%, 2, -6%, 15%
CCOc1ccc(NS(=O)(=O)c2ccc(C(=O)NCC(c3cccs3)N3CCOCC3)cc2)cc1 (stereo not given)
→ -1.3%, ·, 23%, ·

Additional structures.
Each structure is followed by: Rango complex inh, GLA inh pH 4.5, Rango release inh, miR-21 reporter
COc1cc(C(O)P(=O)(OC(C)C)c2ccc(N(C)C)cc2)cc(OC)c1OC (stereo not given)
→ 2.0%, 8, 7%, -1%
CCN(CC)S(=O)(=O)c1ccc(C(=O)OCC(=O)NCc2ccco2)cc1
→ 0.4%, 4, 0%, 2%
COc1ccc(Oc2nnnn2-c2ccccc2)cc1
→ -0.7%, 5, -15%, -45%
Cc1ccc(Cn2nc(C)c(NC(=O)c3cc(-c4ccc5c(c4)OCO5)on3)c2C)cc1
→ -2.2%, -8, 0%, 14%
Nc1nc[nH]c(=O)c1N=Cc1ccccc1
→ ?, 5, -10%, 0%
COc1cccc(NC(=O)c2ccccc2-c2nc(-c3ccccc3)no2)c1
→ 0.5%, 6, 0%, -14%
CC(C)(C)NC(=O)CSc1nncn1NCc1c(Cl)cccc1Cl
→ -3.3%, 4, -1%, -6%
C=CCOc1c(Cl)cc(C2NC(=O)NC(C)=C2C(=O)OC)cc1Cl (stereo not given)
→ -0.1%, -9, 8%, 14%
C[C@H]1CN=C(Nc2ccccc2)N1CCCC1CCCCC1
→ 2.6%, ·, -16%, 12%
O=C(c1ccc(CS(=O)Cc2ccccc2Cl)o1)N1CCN(C2CCCCC2)CC1 (stereo not given)
→ -1.4%, ·, 2%, -1%
O=C(NNc1cccc(Cl)n1)c1ccc(Cl)nc1
→ -3.4%, -4, -12%, -5%
CCCCN(CCCC)/C(N)=N/c1nc(C)cc(C)n1
→ -3.2%, 1, -1%, 3%
CCCCCCn1c(SCCC)nc2c1c(=O)[nH]c(=O)n2C
→ -1.6%, 5, 6%, -7%
CC1(C2CC2)NC(=O)N(CC(=O)Nc2ccc(F)cc2F)C1=O (stereo not given)
→ 0.3%, ·, -18%, ·
N=c1c(C(=O)NCC2CCCO2)cc2c(=O)n3ccccc3nc2n1Cc1cccnc1 (stereo not given)
→ ?, -1, ?, -5%
CCn1cc(CNCc2cn(-c3ccccc3C)nc2-c2ccc(OC)c(F)c2)cn1
→ 3.6%, 2, 4%, -7%
CCOc1ccc(C(=O)Nc2ccccc2N2CCOCC2)cc1
→ -6.4%, 2, 0%, -14%
O=C(NCc1nnc2c3ccccc3c(-c3ccccc3)nn12)c1ccc(Cl)cc1
→ 2.8%, -3, 41%, -1%
Cc1ccc(CSc2ccc(S(=O)(=O)N3CCOCC3)cn2)cc1
→ -0.4%, ·, -1%, ·
O=C(CSc1nc(-c2ccco2)cc(C(F)(F)F)n1)N1CCN(c2cccc(Cl)c2)CC1
→ 0.9%, 3, -4%, -1%
CCOc1ccc(NC(=O)CN(C)C(=O)CCSc2ccc(F)cc2)cc1OCC
→ 3.3%, ·, -2%, ·
c1ccc(-c2ccc(-c3cn4c(n3)CCC4)cc2)cc1
→ 7.9%, -4, 1%, -2%
Cc1ccc(S(=O)(=O)N2CCCCC2)cc1NC(=O)CSc1nnnn1C
→ -0.9%, 6, -8%, 1%
COc1ccc(C2CC(=O)c3cnc(NC(=O)c4ccco4)nc3C2)cc1 (stereo not given)
→ -0.3%, ·, 0%, -10%
CC(C)(C)NC(=O)C(=O)NNC(=O)c1cccc([N+](=O)[O-])c1
→ -0.3%, 0, 0%, -31%
COc1ccc(-c2n[nH]c(C)c2-c2ccccc2OC)c(O)c1
→ 0.8%, ·, 9%, 20%
CCn1c(SCC(=O)c2ccc(O)c(O)c2)nnc1-c1ccccc1
→ -3.1%, 7, -20%, -62%
CCN(CC)C(=O)c1sc(NC(=O)c2ccco2)c(C#N)c1C
→ ?, -1, ?, -5%
Cn1c(NC(=O)c2ccccc2)nc2ccccc21
→ -0.5%, ·, 0%, -7%
COc1ccc(OC)c2sc(NC(=O)CCS(=O)(=O)c3ccccc3)nc12
→ ?, ·, 12%, ·
CS(=O)(=O)c1ccc2nc(NC(=O)c3cccs3)sc2c1
→ -0.7%, 3, 6%, 21%
COCCNc1nc2c(-c3cccc(C(F)(F)F)c3)nnn2c2ccccc12
→ 6.3%, ·, 3%, -8%
CCOc1ccc(-c2nc(N)ncc2-c2ccccc2)c(O)c1
→ -0.4%, -1, 1%, -4%

Bioassay records (PubChem BioAssay)
